WNV protease inh – blocks West Nile virus NS2B-NS3 protease activity; P06935; WNV NS2B-NS3 protease, fluorogenic substrate Ex360/Em465; stronger effect = lower value; z-score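 (tested at a level between 10 and 100 µM)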; 65,000 tested, 0.18% active;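 active means z-score at -3 or under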;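 further: score is relative to mean and spread of the compound wells of a plate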
Target sequence (P06935 1371-1501 limits assumed): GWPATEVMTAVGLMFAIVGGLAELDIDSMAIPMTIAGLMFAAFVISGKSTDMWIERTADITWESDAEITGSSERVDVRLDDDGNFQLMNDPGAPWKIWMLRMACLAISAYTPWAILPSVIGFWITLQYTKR
Target sequence (P06935 1502-1679 limits assumed): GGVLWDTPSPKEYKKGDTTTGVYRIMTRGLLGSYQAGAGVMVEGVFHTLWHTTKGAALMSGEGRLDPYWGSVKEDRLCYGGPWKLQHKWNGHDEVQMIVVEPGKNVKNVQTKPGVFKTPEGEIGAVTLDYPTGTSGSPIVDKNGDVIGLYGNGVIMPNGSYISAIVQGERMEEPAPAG
MT1-MMP promoter – inhibitors of MT1-MMP promoter transcription, cell-based, luciferase reporter, luminescence (AID 618). MT1-MMP promoter luciferase reporter cells, luminescence. 87,000 tested, 0.62% active. calls from a first round at 10 µM; hits with a dose series show EC50 in µM;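 active means over half of the reporter light lost at 10 µM or EC50 under 50 µM; inactive means the rest and hits that failed the dose series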;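 further: actives suppress MT1-MMP promoter-driven transcription so potencies describe inhibitors; HT1080 fibrosarcoma cells; overnight exposure; toxic or luciferase-blocking compounds were not removed from the actives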
Starred values were filed as active, the others as inactive; i = inactive; . = not tested or not shown.

Sample of the layout (two entries):
SMILES	WNV protease inh	MT1-MMP promoter
O=C(Oc1ccc(Cl)cc1N1C(=O)CCC1=O)c1ccco1	0.25	.
CCCCC(=O)Nc1ccccc1C#N	0.62	.

The listing (from the top)
SMILES	WNV protease inh	MT1-MMP promoter
O=C(Oc1ccc(Cl)cc1N1C(=O)CCC1=O)c1ccco1	0.25	.
CCCCC(=O)Nc1ccccc1C#N	0.62	.
[O-]/[N+](=C\c1ccncc1)c1ccc(Br)cc1	-0.44	.
COc1cc2c(cc1NC(C)=O)CCCC2	-0.31	.
O=C(Nc1nc2ccccc2n1CCOc1ccc(Cl)cc1)c1ccco1	-0.83	.
O=C(CN1CCOCC1)Nc1ccc(-c2nc3ccccc3[nH]2)cc1	-1.3	.
Cc1ccc(NC(=O)CS(=O)(=O)c2cn(C)c3ccccc23)c(C)c1	-0.18	.
O=C(Nc1cccc(F)c1)Nc1ccccn1	-0.07	.
Cc1ccc(Nc2ncnc3nc[nH]c23)cc1Cl	0.28	.
COc1cccc(C2c3c(oc4ccc(F)cc4c3=O)C(=O)N2CCCN2CCOCC2)c1 (stereo not given)	0.83	.
CN(CC1CCCO1)S(=O)(=O)c1ccc(C(=O)Nc2nc(-c3ccccn3)cs2)cc1 (stereo not given)	1.6	.
CCC(=O)N/C(=N/c1nc(C)cc(C)n1)Nc1cccc(OC)c1	-0.02	.
COc1cc(C(=O)NCCc2cn3ccccc3n2)cc(OC)c1OC	-0.4	.
O=C(CSC1=Nc2ccccc2C2=NC(c3ccccc3)C(=O)N12)NCC1CCCO1 (stereo not given)	-0.94	.
CC(=O)NCCOC(=O)Nc1ccncc1	0.39	.
O=C(NCC1CCCO1)c1cc(-c2ccccc2)on1 (stereo not given)	1.5	.
Cc1csc(NC(=O)CSc2nc(C)cs2)n1	1.6	.
CCCCC(=O)Nc1ccc2c3c(cccc13)C(=O)N2CC	-0.93	.
CC(O)CN1C(=O)C(CC(=O)Nc2ccc(Cl)cc2)SC1=Nc1ccccc1 (stereo not given)	-0.15	.
CCN(CC)C(=O)c1ccc(CS(=O)(=O)c2ccc(OC)cc2)o1	1.2	.
CCCCCOC(=O)c1[nH]c2c(c1C)C(=O)CC(c1ccco1)C2 (stereo not given)	-1	.
COc1ccc(NC(=O)c2ccco2)cc1NC(=O)c1ccc(C)cc1	-0.97	.
CCN(CC)S(=O)(=O)c1ccc(NC2c3ccccc3C(=O)N2CCN2CCOCC2)cc1 (stereo not given)	-0.74	.
COc1ccc(CN2CCC(C(=O)N(C)CCc3ccc(OC)c(OC)c3)CC2)c(OC)c1	0.03	.
CCCS(=O)(=O)c1c(S(=O)(=O)CCC)c2ccccn2c1C(=O)OC	1.5	.

More entries.
SMILES	WNV protease inh	MT1-MMP promoter
COC(=O)c1cc2occc2n1CC(=O)Nc1ccc(OC)c(OC)c1OC	-2	.
CCN(CC)CCSc1nc(O)c(C(C)C)c(=O)[nH]1	-1.3	.
Cc1oc2cc(OCC(=O)O)ccc2c(=O)c1Oc1ccccc1	1.5	.
COc1ccc(CCNC(=O)CSc2nnc(CNC(=O)c3cccs3)o2)cc1OC	-1.1	.
COc1ccc(CSc2n[nH]c(C)n2)cc1Br	0.15	.
Nc1nc2n(c1C(=O)c1ccccc1)CCC2	-0.21	.
COc1cc(C2C(C(C)=O)=C(O)C(=O)N2c2ccc(Br)cn2)ccc1O (stereo not given)	-0.45	.
O=C(Nc1ccc(C(=O)N2CCOCC2)cc1)Nc1cccc(Cl)c1	-0.0065	.
N#CCCn1c(-c2nonc2NC(=O)c2ccccc2Cl)nc2ccccc21	0.35	.
Cc1cc(C)nc(NS(=O)(=O)c2ccc(N)cc2)n1	0.29	.
COc1ccc(C(O)c2nccn2Cc2ccccc2)cc1 (stereo not given)	-1	.
COc1cccc(NC(=O)CSc2ccc3nnc(-c4ccncc4)n3n2)c1	0.49	.
O=c1c2cccc3c2c(nn1CN1CCOCC1)-c1ccccc1-3	-0.69	.
O=c1sc(Nc2ccccc2)nc2ccsc12	-0.25	.
CCOC(=O)c1ccc(CNS(=O)(=O)c2c(C)ccc3nsnc23)o1	0.03	.
COc1ccc(C2/C(=C(/O)c3ccc(F)cc3)C(=O)C(=O)N2CCCN(C)C)cc1 (stereo not given)	-0.88	.
COc1cccc2cc(C(=O)N3CCN(c4ccccc4F)CC3)c(=O)oc12	0.04	.
N#Cc1nc(COc2ccccc2)oc1N1CCCCC1	0.06	.
COc1ccc(OC)c(C2=NOC(C(=O)Nc3cc(C)nn3-c3ccccc3)C2)c1 (stereo not given)	0.55	.
CCCC(=O)N1CCN(c2ccc(NC(=O)c3cc4ccccc4o3)cc2)CC1	-0.64	.
Cc1ccccc1OCCCC(=O)Nc1nccs1	1.9	.
COc1cc(C)c(S(=O)(=O)N2CCCC2)cc1C	-0.82	.
O=C(CN1CCN(c2ncccn2)CC1)N(Cc1ccccc1)c1ccc(F)cc1	-0.23	.
O=C1C2C(C(=O)N1CC1CCCO1)C1C=CC2C12CC2 (stereo not given)	-0.35	.
O=C(CSc1ccc2nnc(-c3ccncc3)n2n1)Nc1ccc2c(c1)OCCO2	0.09	.

The list goes on.
SMILES	WNV protease inh	MT1-MMP promoter
Cc1cc(N)n(-c2ccccc2)n1	-0.82	.
O=S(=O)(Nc1ccc2c(c1)OCCO2)c1cccc2nsnc12	-0.91	.
CCOc1cc(CN2CCN(c3ccc(C(C)=O)cc3)CC2)ccc1OC	-1.4	.
CCOC(=O)Nc1ccc2c(c1)N(C(=O)N(CC)CC)c1ccccc1CC2	0.57	.
COc1ccc(C(=O)Nc2nncs2)c(OC)c1	0.14	.
Nc1nnc(CSCc2ccccc2)s1	-0.61	.
COc1ccc(C(=O)NCc2nnc(SCC(=O)N3CCC(C)CC3)o2)cc1OC	0.5	.
Cc1cc(NC(=O)CSc2cn(C)c3ccccc23)no1	1.5	.
Cc1ccc(OCc2ccoc2C(=O)O)cc1C	-2.1	.
Cc1cc(C)c2nc3s/c(=C/c4ccc5c(c4)n(C)c(=O)n5C)c(=O)n3c2c1	-0.07	.
COC(=O)CNC(=O)c1c(-c2c(Cl)cccc2Cl)noc1C	0.39	.
CCCCOCCCNC(=O)CN1C(=O)c2ccccc2C1=O	-0.61	.
CCCN1CC=C2C(C#N)=C(N)C(C#N)(C#N)C(c3cccc(OC)c3OC)C2C1 (stereo not given)	-0.53	.
CCc1nnc(NC(=O)COC(=O)CN2C(=O)c3ccccc3C2=O)s1	0.82	.
C=CCn1c(SCC(=O)Nc2ccc(C)cc2C)nnc1-c1cccnc1	-0.65	.
CCOc1cc(C#N)c(NC(=O)c2cccnc2)cc1OCC	-0.1	.
COc1ccc(-c2noc(CCC(=O)NCc3cc(Br)ccc3OC)n2)cc1	-0.72	.
Cc1c(-c2ccccc2)[n+](=O)c(-c2ccco2)c(C)n1[O-]	0.19	.
COc1ccc(-n2c(CNC(=O)c3ccc(S(=O)(=O)N4CCCC4)cc3)n[nH]c2=S)cc1	-0.32	.
CC1CCc2cc(F)cc3c(O)c(C(=O)NCC4CCCO4)c(=O)n1c23 (stereo not given)	0.36	.
O=C(Nc1ccc(Cc2ccncc2)cc1)c1ccc(Br)o1	-0.2	.
COc1cccc(C2CC(=O)NC(SC)=C2C#N)c1 (stereo not given)	-0.86	.
COc1cc2nc(-c3cccs3)oc(=O)c2cc1OC	-0.74	.
O=C(CCS(=O)(=O)c1cccc2nonc12)Nc1cccc2c1CCCC2	-0.28	.
CC(C)c1nc2cc3ccccc3cc2[nH]1	-1.2	.

Grouped by structure, the entries above containing bromine (5)
SMILES	WNV protease inh	MT1-MMP promoter
[O-]/[N+](=C\c1ccncc1)c1ccc(Br)cc1	-0.44	.
COc1ccc(CSc2n[nH]c(C)n2)cc1Br	0.15	.
COc1cc(C2C(C(C)=O)=C(O)C(=O)N2c2ccc(Br)cn2)ccc1O (stereo not given)	-0.45	.
COc1ccc(-c2noc(CCC(=O)NCc3cc(Br)ccc3OC)n2)cc1	-0.72	.
O=C(Nc1ccc(Cc2ccncc2)cc1)c1ccc(Br)o1	-0.2	.

More entries
SMILES	WNV protease inh	MT1-MMP promoter
CCOC(=O)N1CCN(C(=O)CSCC(=O)N=c2sc3ccccc3n2C)CC1	-0.69	.
CCCC(=O)Nc1cc(C)c2c(=O)oc3ccccc3c2n1	0.34	.
COc1cccc(N(CC(=O)NC(C)c2ccccc2)S(C)(=O)=O)c1 (stereo not given)	-1.2	.
Cc1ccc(C(C)NC(=O)c2c(C)noc2C)cc1C (stereo not given)	0.51	.
O=C(CSc1ccc2nnc(-c3ccccn3)n2n1)Nc1ccc2c(c1)OCCO2	0.17	.
CCOC(=O)CN1CC23C=CC(O2)C(C(=O)NCc2cccs2)C3C1=O (stereo not given)	1.4	.
COc1ccc(CCNC(=O)C2CCCCC2C(=O)O)cc1OC (stereo not given)	-1.1	.
COc1ccc(OC)c(C2C(C#N)=C(N)Oc3c2c(C)nn3-c2ccc(C)cc2)c1 (stereo not given)	0.12	.
COC(=O)c1cc(-c2ccc(OC)c(OC)c2)n[nH]1	1.4	.
CCOCCn1c(CN2CCN(CCO)CC2)nc2c1c(=O)n(C)c(=O)n2C	0.93	.
CCS(=O)(=O)N1CCN(C(=O)c2cccnc2)CC1	-1.2	.
CCn1c(=NC(=O)CSCC(=O)Nc2nccs2)sc2ccccc21	2.3	.
COc1ccc(C(=O)NCc2nnc(SCC(=O)N3CCc4ccccc43)o2)cc1OC	-0.27	.
c1nc(NC2CCCC2)c2[nH]cnc2n1	0.39	.
Cc1ccc(P(=O)(O)c2ccc(C)cc2)cc1	-0.45	.
O=C(NCCc1csc(-c2cccnc2)n1)c1ccco1	0.21	.
COc1ccc(NC(=O)CSc2nccn2-c2ccccc2)cc1	-0.78	.
CN(C)S(=O)(=O)c1ccc(S(=O)(=O)N(Cc2ccccn2)Cc2ccco2)cc1	0.56	.
CCOC(=O)CSC1=C(C#N)C(c2sccc2C)CC(=O)N1 (stereo not given)	-0.24	.
COc1ccc(C(=O)NCc2nnc(SCC(=O)NCc3ccc(F)cc3)o2)cc1	-0.0078	.
C=CCn1c2ccccc2c2nnc(SCN3C(=O)c4ccccc4C3=O)nc21	-0.3	.
CCC(=O)N1CCc2cc(S(=O)(=O)N(CC)c3cccc(C)c3)ccc21	-2	.
Cc1nonc1NC(=O)OCCN1CCOC1=O	0.86	.
CCOC(=O)C1CCN(C(=O)CCCOc2ccccc2)CC1	0.51	.
COc1ccc2c(c1)c(C(=O)CNc1nc(C)cs1)c(C)n2C	-0.32	.

Whole records as entered above. Order of screens: WNV protease inh, MT1-MMP promoter
Nc1nc2n(c1C(=O)c1ccccc1)CCC2 is listed as -0.21, .
CN(CC1CCCO1)S(=O)(=O)c1ccc(C(=O)Nc2nc(-c3ccccn3)cs2)cc1 (stereo not given) is listed as 1.6, .

(listing goes on)
SMILES	WNV protease inh	MT1-MMP promoter
O=C(Nc1nccs1)C(NS(=O)(=O)c1ccc(Br)s1)c1ccccc1 (stereo not given)	3.7	.
C=CCn1c(=O)[nH]c2cc(C(=O)N3CCN(c4ccc(C(C)=O)cc4)CC3)ccc2c1=O	-0.46	.
CN(C)c1oc(COc2ccc(F)cc2)nc1C#N	0.49	.
O=C(CSc1nnc(CNC(=O)c2cccs2)o1)c1ccccc1	1.4	.
O=C(Nc1ccc2c(c1)OCO2)C1CC(c2c(F)cccc2Cl)=NO1 (stereo not given)	1.2	.
CCCCNC(=O)CC1N=C2c3ccccc3N=C(SCC(=O)Nc3ccccc3C)N2C1=O (stereo not given)	-0.39	.
COc1ccc(-c2cc(C(F)F)n3ncc(C(=O)N4CCN5CCCC5C4)c3n2)cc1 (stereo not given)	-0.42	.
O=C1CC(N2CCN(c3ccc(F)cc3)CC2)C(=O)N1Cc1ccc(N2CCCC2=O)cc1 (stereo not given)	0.44	.
O=C(Nc1ccc2oc(-c3ccccc3F)nc2c1)c1ccc2c(c1)OCCO2	1	.
CC(C)c1ccc(C(=O)Nc2ccc(N3CCOCC3)cc2)cc1	0.17	.
O=C(Nc1ccc(Br)cc1)C1CCCN1S(=O)(=O)c1cccs1 (stereo not given)	-1.5	.
Cc1c(C(=O)O)sc2ncnc(N3CCCCC3C)c12 (stereo not given)	0.02	.
CCOc1ccc(OCC)c(NC(=O)C2CCN(S(=O)(=O)c3c(C)noc3C)CC2)c1	-0.46	.
Cc1c(NC(=O)c2ccc3c(c2)OCO3)c(=O)n(-c2ccccc2)n1C	-0.15	.
O=C(COC(=O)C1CC(=O)N(C2CCCCC2)C1)c1ccc(F)cc1 (stereo not given)	0.27	.
c1ccc(-n2ncc3c(N4CCCCC4)ncnc32)cc1	0.62	.
Cc1ccc(-c2nc3ncccn3c2NC2CCCC2)o1	0.56	.
CCCN(CCC)C(=O)Cn1c(=O)n(CCCCC(=O)NC2CCCC2)c(=O)c2ccccc21	-0.43	.
COC(=O)CN(c1ccccc1C)S(C)(=O)=O	-0.01	.
O=C1CCCc2[nH]nc(-c3cccnc3)c21	-0.21	.
COc1ccc2oc(C(=O)C3CC3)c(NC(=O)CCCN3C(=O)c4ccccc4C3=O)c2c1	-0.19	.
CCOC(=O)CC(N)c1ccc(OC)cc1 (stereo not given)	0.01	.
Cc1ccccc1S(=O)(=O)Cc1ccc(C(=O)NCCN2CCN(Cc3ccccc3)CC2)o1	-0.56	.
CC12CC(NC(=O)N1c1cccc(C(=O)Nc3ncn[nH]3)c1)c1ccccc1O2 (stereo not given)	-0.54	.
CCOC(=O)C1CCCCN1Cc1cccc(C(F)(F)F)c1 (stereo not given)	.	i
CCN(CC)S(=O)(=O)c1cccc(C(=O)NC(C(=O)Nc2nnc(C)s2)C(C)C)c1 (stereo not given)	.	i
CON1C(=O)CN(C(C)=O)C1c1ccc(Cl)cc1Cl (stereo not given)	.	i
C[C@H]1C2=C3[C@@H](C[C@H]4C(=O)N(c5ccccc5)C(=O)[C@H]4[C@H]3[C@@]3(Cc4ccccc4)C(=NCCc4c[nH]c5ccccc45)OC(=O)N3C2=O)[C@H]2C(=O)N(c3ccccc3)C(=O)[C@H]21	.	i
Cc1ccc2c(c1)nc(NCCCO)n2C	.	i

An excerpt. The share of hits here may be higher or lower than overall.
